# Bioassay records as filed in PubChem BioAssay.
# POLK inh = blocks human DNA polymerase kappa activity | purified Pol kappa, fluorescent DNA synthesis assay, 10 min | Potency, µM (highest dose often 107 µM), without a hit: top-dose activity, negative = inhibition, hits mostly inhibitors | 0.53% of 400,000 active | AID 588579; also: % is scaled to controls: 0 for no effect and ±100 for the full control effect
#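 Activity was followed as the change in fluorescence between reads at 0 and 10 min after starting the reaction with 50 nM substrate. Beforehand, 10 nM polymerase had been preincubated with compound for 15 min at room temperature.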
# POLI inh = blocks human DNA polymerase iota activity | Pol iota fluorescent replication assay, 10 min | Potency, µM (doses to about 115 µM), inactives show at the top dose activity, negative = inhibition, most hits filed as inhibitors | 1% of 390,000 active | AID 588590
# Target sequence (Q9UNA4 whole entry, looked up): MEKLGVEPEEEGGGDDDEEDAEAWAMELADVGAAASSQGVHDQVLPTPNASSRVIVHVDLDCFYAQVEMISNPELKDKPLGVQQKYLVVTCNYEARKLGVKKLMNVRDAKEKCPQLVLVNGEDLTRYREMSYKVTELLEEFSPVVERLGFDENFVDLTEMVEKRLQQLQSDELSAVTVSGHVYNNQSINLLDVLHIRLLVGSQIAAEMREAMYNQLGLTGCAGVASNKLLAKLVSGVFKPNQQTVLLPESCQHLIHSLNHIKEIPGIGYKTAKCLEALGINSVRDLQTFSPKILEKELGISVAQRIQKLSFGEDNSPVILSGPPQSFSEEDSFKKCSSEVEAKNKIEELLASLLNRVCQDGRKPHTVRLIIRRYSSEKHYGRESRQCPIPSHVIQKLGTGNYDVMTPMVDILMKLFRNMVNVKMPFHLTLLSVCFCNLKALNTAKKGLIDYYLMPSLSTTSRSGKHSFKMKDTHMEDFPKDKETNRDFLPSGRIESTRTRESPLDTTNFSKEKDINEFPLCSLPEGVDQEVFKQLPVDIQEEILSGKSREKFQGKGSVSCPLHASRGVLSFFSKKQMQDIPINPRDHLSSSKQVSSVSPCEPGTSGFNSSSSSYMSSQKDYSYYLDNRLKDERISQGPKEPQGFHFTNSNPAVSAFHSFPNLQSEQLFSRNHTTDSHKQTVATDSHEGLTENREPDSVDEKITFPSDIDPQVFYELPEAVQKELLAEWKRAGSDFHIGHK
#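 Fluorescent replication assay read twice, at 0 min and 10 min after adding 50 nM (final) substrate. Enzyme (10 nM) and compounds were first incubated 15 min at room temperature; enzyme-free buffer wells were negative controls.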
# BLM helicase inh = blocks DNA unwinding by human BLM helicase | AID 2528 | recombinant BLM DNA unwinding, fluorescence dequenching | 0.2% of 350,000 active | P54132 | Potency, µM (highest dose often 56.1 µM), for inactives: top-dose activity change, negative = inhibition, usual class: inhibitors;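 also: plate controls were vehicle for no effect and no enzyme for full effect; nearly all actives have a fitted effect of over 35% in size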
# Starred values were filed as active, the others as inactive; u = inconclusive; x = not tested or not shown; & = joins results of further samples; [ ] = another dose, or the depositor's remark. Calls follow the shape of the dose curve; as a rule, active = well fitted curve in the direction sought with a large enough effect; inconclusive = small, poorly fitted or top-dose-only effect, or another doubt; inactive = no such curve, though single readings can be large; an effect the other way counts as inactive or inconclusive. Potency is read from the fitted curve at half-maximal effect. These rows are one share of the data; rates above refer to the full screens.
SMILES,POLK inh,POLI inh,BLM helicase inh
CCOC(=O)c1cc(C#N)c(N2CCN(c3ccccn3)CC2)nc1-c1ccccc1,-10%,17%,-8%
CCOC(=O)c1cc(C#N)c(N2CCCNCC2)nc1C(F)(F)F,5%,33%,-3%
CCN(CC)C(=O)C1=C(C)Nc2nnnn2C1c1cccnc1 (stereo unspecified),-9%,11%,-1%
C=CCn1c(CCNC(=O)c2cccs2)nnc1SCC(=O)Nc1cccc(C(C)=O)c1,0%,6%,0%
C/C(=N/OCO/N=C(\C)c1ccccc1)c1ccccc1,-7%,7%,-5%
O=C(Nc1ccccc1N1CCCCC1)c1ncoc1-c1cccc(F)c1,6%,19%,-5%
CCc1ccc(C2C(C(=O)O)c3ccccc3C(=O)N2C)cc1 (stereo unspecified),-4%,2%,2%
Cc1cccc(C(=O)Oc2ccc(/C=N/NC(=O)Cc3ccc([N+](=O)[O-])cc3)cc2)c1,-15%,113%[activator],-1%
COc1cc(C)c(Cl)c(C)c1S(=O)(=O)NCc1ccc2c(c1)OCO2,-20%,4%,-3%
CCCCc1oc2ccccc2c1C(=O)c1cc(I)c(OCCN(CC)CC)c(I)c1,-6%[60.1 µM],-22%,-6%
CCOc1ccc2c(c1)/C(=C(\C(Cl)=C(Cl)Cl)[N+](=O)[O-])N2,-7%[60.1 µM],u,-11%
COc1cccc2cc(C(=O)CS(=O)(=O)c3ccc(Cl)cc3)c(=O)oc12,-18%,13µM*,-4%
COc1ccc(OC)c(-c2csc(N3CCC(c4ccccc4)CC3)n2)c1,-13%,134%[activator],0%
COc1ccccc1NC(=S)N1CCc2cc(OC)c(OC)cc2C1,-13%,16%,-2%
O=C1CCCC(=O)C1C(c1ccc(Cl)cc1)C1C(=O)CCCC1=O,4%,10%,x
N#CC1=C2SCN(c3ccc(F)cc3)CN2C(=O)CC1c1cccc(F)c1 (stereo unspecified),-12%,-16%,-12%
CCOCCCN(Cc1ccco1)S(=O)(=O)c1cc2c(cc1C)NC(=O)CO2,-12%[60.1 µM],-1%,-3%
CC(=O)CSc1nnc(-c2ccco2)n1-c1ccccc1,8%,10%,-1%
COc1cccc(C2CC(=O)N3CN(c4ccccc4F)CSC3=C2C#N)c1 (stereo unspecified),-7%,-1%,-6%
Cc1ccccc1OCc1nc(-c2ccc(NC(=O)c3ccc4c(c3)OCO4)cc2)no1,-7%,-7%,-2%
CO[C@]12C(COC(N)=O)C3=C(C(=O)C(C)=C(N)C3=O)N1CC1NC12 (stereo partly specified),u,x,-11%
C/C(=N\NC(=O)c1ccc(NS(=O)(=O)c2cccs2)cc1)c1ccccc1,-3%,-7%,0%
Nc1ccccc1Oc1ncc(C(F)(F)F)cc1Cl,-8%,8%,-5%
CC(C)C(C(=O)OCC(=O)c1ccc2c(c1)NC(=O)CO2)N1C(=O)c2ccccc2C1=O (stereo unspecified),-1%,6%,-2%
CCNC(=O)C1CC(=O)N(CC)C(=Nc2cc(Cl)c(O)c(Cl)c2)S1 (stereo unspecified),-18%,-9%,1%
O=C1CCC/C(=N/NC(=O)c2ccc(NS(=O)(=O)c3cccs3)cc2)C1,u,68%[activator],-1%
COc1ccc(/C=C/C(=O)c2cc(Br)ccc(=O)c2O)cc1,25µM*,2.5µM*,-20%
Cc1cc(C(C)(C)C)c(OC(=O)[C@@H]2OC(c3ccccc3)=C[C@H]2c2ccccc2)c(C(C)(C)C)c1,-9%,41%[activator],x
COc1ccc(/C=N/NC(=O)c2sccc2OCc2ccc(F)cc2)cc1OC,-17%,5%,-2%
C/C(=N\NC(=O)c1cccs1)c1c(O)cc(C)oc1=O,-1%,-9%,-3%
COc1ccc(/C(O)=C2\C(=O)C(=O)N(c3cc(C)on3)C2c2ccc(OC)c(OC)c2)cc1OC (stereo unspecified),3%,12%,1%
N#CC1=C2SCN(c3ccccc3)CN2C(=O)CC1c1cccs1 (stereo unspecified),-14%,-6%,-16%
CCOc1cc(S(=O)(=O)NCc2ccc3c(c2)OCO3)c(C)cc1C,-2%,6%,-11%
COc1ccccc1NC(=O)C1=C(C)Nc2nnnn2C1c1ccncc1 (stereo unspecified),-3%,13%,-4%
O=C1Nc2cc(C(=O)N3CCc4ccccc4C3)ccc2S/C1=C\c1ccccc1,-9%,14%,-7%
Cc1cccc(C(=O)Oc2ccccc2/C=N/NC(=O)c2ccc(NC(=O)C(C)(C)C)cc2)c1,-14%,-4%,-2%
Cc1sc2ncnc(SCC(=O)N3CCN(C(=O)c4ccco4)CC3)c2c1C,-14%,23%,-6%
CC(C(=O)O)c1cccc(C(=O)c2ccccc2)c1 (stereo unspecified),-1%[60.1 µM],6%[58.9 µM],-3%&-11%&0%
Cc1ccc(NC(=O)C2CC(Cl)=CCC2C(=O)O)c([N+](=O)[O-])c1 (stereo unspecified),12%,7%,-5%
CCc1nn2c(-c3ccco3)ccnc2c1-c1ccccc1,6%,-12%,-4%
CN(Cc1c(F)cccc1Cl)C(=O)c1cnc2ccccc2n1,-1%,87%[activator],-6%
CC1CN(Cc2cc(=O)oc3cc(O)ccc23)CC(C)O1 (stereo unspecified),-5%,37%[activator],-1%
COc1ccc(CNc2cccc(F)c2)cc1Br,0%,-11%,-9%
COc1cc(C(=O)N/N=C/c2ccc(OC(=O)c3cccc(C)c3)c(OC)c2)ccc1O,-6%,11%,-8%
CCC(C)(C)n1nnnc1C(c1cccs1)N1CCc2ccccc21 (stereo unspecified),-15%,-2%,-10%
CCOC(=O)N1CCN(C(=O)c2ccc3c(c2)NC(=O)/C(=C\c2cccc(C)c2)S3)CC1,-18%,u,-4%
CCOC(=O)C1=C(COCCN)NC(C)=C(C(=O)OC)C1c1ccccc1Cl (stereo unspecified),-5%,-17%&28%&17%&-9%,5%&2%&-10%
C=CCn1c(CCNC(=O)c2ccccc2F)nnc1SCC(=O)Nc1nc2ccccc2s1,0%,15%,-5%
Cc1nn2c(-c3ccco3)ccnc2c1-c1ccc(Cl)cc1,-3%,12%,-4%
COC(=O)C1=NN(c2ccc(C)cc2)C2C(=O)N(c3ccccc3OC)C(=O)C12 (stereo unspecified),-13%,175%[activator],-4%
O=C(N/N=C/c1ccncc1)c1ccc(NS(=O)(=O)c2cccs2)cc1,-5%,50%[activator],0%
CCOC(=O)c1cc(C(=O)OCC)c2cccc(C)n2c1=O,-6%,-9%,-3%
O=S(=O)(Nc1cccc(C(F)(F)F)c1)c1cnc[nH]1,2%,u,-2%
CCc1ccc(S(=O)(=O)Nc2ccc(-c3nc4cccnc4s3)cc2)s1,-6%,17%,0%
Cc1ccc(CNC(=O)Cn2cnc(S(=O)(=O)N3CCCCC3)c2)o1,8%,39%[activator],0%
O=C(O)COCC(=O)Nc1ccc2c(c1)ncn2CCc1ccccc1,-6%,85%[activator],0%
N#CC(c1cccc(C(F)(F)F)c1)(c1ncc(C(F)(F)F)cc1Cl)N1CCOCC1 (stereo unspecified),-9%,33%[activator],-8%
C=CCn1c(CCNC(=O)c2ccccc2F)nnc1SCC(=O)Nc1nc(C)cs1,-6%,2%,0%
COc1ccc(OC)c(C2CC(=O)N3CN(c4cccc(Cl)c4)CSC3=C2C#N)c1 (stereo unspecified),5%,14%,0%
CC(C)C[C@H](NC(=O)c1nc[nH]c1C(=O)NC1CCN(C(=O)OC(C)(C)C)CC1)C(=O)OC(C)(C)C,-17%,-11%,-19%
# Next records follow.
SMILES,POLK inh,POLI inh,BLM helicase inh
O=C1c2ccccc2C(=O)N1C(CO)C(O)c1ccc([N+](=O)[O-])cc1 (stereo unspecified),14%,0%,1%
C/C(=N/NC(=O)c1cccc(C)c1)c1c(O)cc(C)oc1=O,-4%,-2%,2%
CCc1ccc(C2CC(=O)N3CN(c4ccccc4)CSC3=C2C#N)cc1 (stereo unspecified),-18%,u,-19%
COc1ccc(N/N=C(/C(N)=O)C2=NC(C)(C)Cc3ccccc32)cc1,-4%,8%,-9%
Cc1cc(N/N=C/c2ccc(F)cc2)nc(-n2nc(C)cc2C)n1,-10%,-10%,-7%
COc1ccc(-c2cc(=O)oc3cc(O)ccc23)cc1,-1%,39%[activator],-8%
O=C(NCc1ccco1)c1cc2ccccc2c(=O)o1,u,u,1%
CC(/C=C1\SC(=S)N(C(C(=O)O)C(C)C)C1=O)=C\c1ccccc1 (stereo unspecified),-6%,-1%,-17%
Cc1ccccc1CNC(=O)Cn1cnc(S(=O)(=O)N2CCCC2)c1,10%,14%,4%
COc1cc(OC)c(/C=N/n2c(C)nnc2C)c(OC)c1,-2%,-1%,-6%
O=S(=O)(c1cccc(F)c1)N1CCN(Cc2cc3c(cc2Br)OCCO3)CC1,-24%,26%,x
CCSc1nnc2c(n1)[nH]c1c(C)cccc12,-3%[60.1 µM],-1%,1%
COc1ccc(/C=C/C(=O)NC(=S)N2CCSCC2)cc1,-7%,35%[activator],-6%
C=CCN(c1ccc(F)cc1)S(=O)(=O)c1cc(C(=O)NC2CCC(O)CC2)ccc1Cl (stereo unspecified),-14%,-5%,x
COc1ccccc1N1C(=O)C2C(C(=O)c3ccccc3)=NN(c3ccc(Br)cc3)C2C1=O (stereo unspecified),-2%,4%,0%
COc1ccc(-c2nnc(S/C(=C/c3ccc(Cl)cc3)C(=O)O)o2)cc1,-10%,45%[activator],-2%
NC(CO)(CO)CO,14%&-8%[60.1 µM],x,-1%&6%
CC(=O)Nc1cccc(/C(C)=N/NC(=O)c2ccc(NS(=O)(=O)c3cccs3)cc2)c1,2%,u,-3%
CCOc1ccccc1OCCNC1CCCC1,-6%,-10%,3%
NC(=O)c1cc(NC(=O)c2ccc(NS(=O)(=O)c3cccs3)cc2)cc(C(N)=O)c1,-14%,21%,1%
O=C(CSc1nnc(-c2ccco2)n1Cc1ccccc1)NC(=O)NCc1ccccc1,-13%,9%,-5%

# Entries above containing a Cl atom:
SMILES,POLK inh,POLI inh,BLM helicase inh
COc1cc(C)c(Cl)c(C)c1S(=O)(=O)NCc1ccc2c(c1)OCO2,-20%,4%,-3%
CCOc1ccc2c(c1)/C(=C(\C(Cl)=C(Cl)Cl)[N+](=O)[O-])N2,-7%[60.1 µM],u,-11%
COc1cccc2cc(C(=O)CS(=O)(=O)c3ccc(Cl)cc3)c(=O)oc12,-18%,13µM*,-4%
O=C1CCCC(=O)C1C(c1ccc(Cl)cc1)C1C(=O)CCCC1=O,4%,10%,x
Nc1ccccc1Oc1ncc(C(F)(F)F)cc1Cl,-8%,8%,-5%
CCNC(=O)C1CC(=O)N(CC)C(=Nc2cc(Cl)c(O)c(Cl)c2)S1 (stereo unspecified),-18%,-9%,1%
Cc1ccc(NC(=O)C2CC(Cl)=CCC2C(=O)O)c([N+](=O)[O-])c1 (stereo unspecified),12%,7%,-5%
CN(Cc1c(F)cccc1Cl)C(=O)c1cnc2ccccc2n1,-1%,87%[activator],-6%
CCOC(=O)C1=C(COCCN)NC(C)=C(C(=O)OC)C1c1ccccc1Cl (stereo unspecified),-5%,-17%&28%&17%&-9%,5%&2%&-10%
Cc1nn2c(-c3ccco3)ccnc2c1-c1ccc(Cl)cc1,-3%,12%,-4%
N#CC(c1cccc(C(F)(F)F)c1)(c1ncc(C(F)(F)F)cc1Cl)N1CCOCC1 (stereo unspecified),-9%,33%[activator],-8%
COc1ccc(OC)c(C2CC(=O)N3CN(c4cccc(Cl)c4)CSC3=C2C#N)c1 (stereo unspecified),5%,14%,0%
C=CCN(c1ccc(F)cc1)S(=O)(=O)c1cc(C(=O)NC2CCC(O)CC2)ccc1Cl (stereo unspecified),-14%,-5%,x
COc1ccc(-c2nnc(S/C(=C/c3ccc(Cl)cc3)C(=O)O)o2)cc1,-10%,45%[activator],-2%

# 3 records picked at random from those above, as already listed:
SMILES,POLK inh,POLI inh,BLM helicase inh
Cc1ccccc1CNC(=O)Cn1cnc(S(=O)(=O)N2CCCC2)c1,10%,14%,4%
O=C1Nc2cc(C(=O)N3CCc4ccccc4C3)ccc2S/C1=C\c1ccccc1,-9%,14%,-7%
CCOc1ccc2c(c1)/C(=C(\C(Cl)=C(Cl)Cl)[N+](=O)[O-])N2,-7%[60.1 µM],u,-11%
